Mtb H37Rv: M. tuberculosis H37Rv growth inhibitors, H37Rv strain (AID 1626) | M. tuberculosis H37Rv growth inhibition; higher % means a stronger effect | inhibition, % at 10 µM; hits with a dose series show IC50 in µM | hit rate 0.95% among 220,000;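 active = confirmed in a dose series; inconclusive = inhibition above 80% but not taken into the dose series; inactive = below 80% or under 30% at every dose of the series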;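 also: bacteria incubated seven days before Alamar blue readout; 0% = bacteria only wells and 100% = bacteria with antibiotic wells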
RecA intein inh: Mtb RecA intein splicing inhibitors, primary screen, biochemical, fluorescence, HTS | hit rate 0.75% among 290,000 | inhibition, %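 (about 9 µM by stock and volumes)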 | Protein RecA (Mycobacterium tuberculosis (strain ATCC 25618 / H37Rv)), P9WHJ3 | AID 2221, 2009 | cell-free RecA intein splicing; in the data active = inhibition above about 30%; inconclusive = no clear call, values can overlap the other calls;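 also: 0% = vehicle wells and 100% = reference inhibitor control wells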
Target sequence (P9WHJ3 whole entry, looked up): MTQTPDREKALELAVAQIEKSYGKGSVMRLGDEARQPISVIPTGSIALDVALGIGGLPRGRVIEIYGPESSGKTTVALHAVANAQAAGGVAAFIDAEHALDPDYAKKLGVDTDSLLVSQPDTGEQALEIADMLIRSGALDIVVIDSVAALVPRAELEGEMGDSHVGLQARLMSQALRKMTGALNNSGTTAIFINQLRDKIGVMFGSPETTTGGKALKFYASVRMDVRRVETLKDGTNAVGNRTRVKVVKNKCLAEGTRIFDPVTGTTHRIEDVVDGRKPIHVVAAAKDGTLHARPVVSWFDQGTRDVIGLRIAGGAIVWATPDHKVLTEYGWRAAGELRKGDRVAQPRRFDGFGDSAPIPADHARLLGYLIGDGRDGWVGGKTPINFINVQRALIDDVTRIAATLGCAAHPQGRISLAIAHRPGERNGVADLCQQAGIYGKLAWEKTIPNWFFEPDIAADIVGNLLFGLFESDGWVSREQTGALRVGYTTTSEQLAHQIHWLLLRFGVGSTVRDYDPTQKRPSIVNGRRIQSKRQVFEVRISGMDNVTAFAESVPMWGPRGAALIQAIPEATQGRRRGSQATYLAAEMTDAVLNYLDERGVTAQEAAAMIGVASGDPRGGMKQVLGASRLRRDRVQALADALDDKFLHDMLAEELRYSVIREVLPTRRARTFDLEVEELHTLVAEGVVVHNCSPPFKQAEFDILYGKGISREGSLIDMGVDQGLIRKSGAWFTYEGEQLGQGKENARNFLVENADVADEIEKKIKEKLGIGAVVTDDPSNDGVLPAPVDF
Mtb betalactam: beta-lactam sensitization of Mtb H37Rv, H37Rv; hit rate 0.27% among 330,000; inhibition, % at 25 µM; M. tuberculosis H37Rv growth with meropenem, percent inhibition; hits of this screen are not shown here;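 active = about 74% or more and at least 40 points above the plate without the antibiotic, then above 30% in a dose series; inconclusive = first-round hits that could not be retested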;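 also: growth measured after seven days incubation then overnight dye step; 0% = bacteria only wells and 100% = bacteria with antibiotic; twin plates without the antibiotic show which effects depend on it; some results filed as inactive read as strong as hits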
Arbovirus inh: antivirals against arbovirus infection, primary screen, cell-based, full library, 10K replicate subset. AID 1251, 2008. hit rate 0.37% among 200,000. arbovirus infection cell-based antiviral screen. inhibition, % at 10 µM;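 active = inhibition from about 30%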;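 also: bluetongue infection of BSR cells; cell survival read as ATP light after 72 h; 0% = infected wells without compound and 100% = uninfected wells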
YopH inh: YopH tyrosine phosphatase inhibitors, primary screen, biochemical, fluorescence Ex485/Em525; YopH tyrosine phosphatase [Yersinia enterocolitica]; inhibition, %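 (about 10 µM by stock and volumes)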; hit rate 0.16% among 140,000;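 active = inhibition of 50% or more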;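 also: controls were vehicle for no effect and minimum signal wells for full effect; inactives centre near -20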
Arbovirus inh repeat: also measured in Arbovirus inh; calls as there; inhibition, %; measured here: 10K subset replicate screen; many hits read low in the repeat;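 first of two repeat runs on a subset; 0% = infected and 100% = uninfected wells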
* hit, by the source's call. A portion of the library (hit frequency here may not be typical).

Cc1ccc(C)c(N2CCN(C(=O)CCS(=O)(=O)c3cccc4nonc34)CC2)c1 was read as Mtb H37Rv 11%, RecA intein inh 2.5, Mtb betalactam 56, Arbovirus inh 0, YopH inh -30 and Arbovirus inh repeat 10.
`CC(C(=O)O)c1ccc2c(c1)[nH]c1ccc(Cl)cc12` (centres undefined) gave RecA intein inh 1.1 and Mtb betalactam 4.
`O=C(C1=C[C@H](c2ccc3c(c2)OCO3)C[C@H](OCc2ccc(CO)cc2)O1)N1CCN(Cc2ccc3c(c2)OCO3)CC1` gave Mtb H37Rv 9%, RecA intein inh 5.3, Mtb betalactam 96 and Arbovirus inh -8.
For CS(=O)(=O)N1CCC(C(=O)N2CCN(Cc3ccccc3)CC2)CC1 the results were Mtb H37Rv -2%, RecA intein inh -4.3, Mtb betalactam -5 and Arbovirus inh 1.
`O=C(NNS(=O)(=O)c1ccccc1)c1ccccc1-n1cccc1` gave RecA intein inh -3.1 and Mtb betalactam -8.
`Cc1ccc(S(=O)(=O)N(C)c2cc(S(=O)(=O)N3CCOCC3)c(C)cc2C)cc1` gave RecA intein inh 2.4 and Mtb betalactam -2.
O=C1CCC[C@H]2c3[nH]c4ccccc4c3CCN12 was read as Mtb H37Rv -2%, RecA intein inh -2.6 and Mtb betalactam -6.
`Cc1cccc(-c2nc(NCCCN(C)C)c3ccccc3n2)c1` gave RecA intein inh 1.8 and Mtb betalactam 4.
For CC(=O)Nc1cccc(NC(=O)C2CCCN2C(=O)Nc2cccc(C)c2)c1 (centres undefined) the results were Mtb H37Rv -3%, RecA intein inh -0.7, Mtb betalactam -7, Arbovirus inh 6 and YopH inh 3.
COc1ccc(NC(=O)C2CCCN2S(=O)(=O)c2ccc3c(c2)CCC(=O)N3)c(OC)c1 (centres undefined) was read as Mtb H37Rv -3%, Mtb betalactam 0, Arbovirus inh -6 and YopH inh -50.
Screening Cc1cc(-c2ccc(S(=O)(=O)N3CCCCC3)s2)on1 returned RecA intein inh 1.3 and Mtb betalactam -2.
For COc1cc2c(cc1OC)C(C)N(C(=S)Nc1ccccc1)CC2 (centres undefined) the results were Mtb H37Rv -5%, RecA intein inh -0.2, Mtb betalactam 6, Arbovirus inh 1 and YopH inh -19.

For convenience, 4 of the compounds above:
Cc1ccc(C)c(N2CCN(C(=O)CCS(=O)(=O)c3cccc4nonc34)CC2)c1 was read as Mtb H37Rv 11%, RecA intein inh 2.5, Mtb betalactam 56, Arbovirus inh 0, YopH inh -30 and Arbovirus inh repeat 10.
`CC(C(=O)O)c1ccc2c(c1)[nH]c1ccc(Cl)cc12` (centres undefined) gave RecA intein inh 1.1 and Mtb betalactam 4.
`O=C(C1=C[C@H](c2ccc3c(c2)OCO3)C[C@H](OCc2ccc(CO)cc2)O1)N1CCN(Cc2ccc3c(c2)OCO3)CC1` gave Mtb H37Rv 9%, RecA intein inh 5.3, Mtb betalactam 96 and Arbovirus inh -8.
For CS(=O)(=O)N1CCC(C(=O)N2CCN(Cc3ccccc3)CC2)CC1 the results were Mtb H37Rv -2%, RecA intein inh -4.3, Mtb betalactam -5 and Arbovirus inh 1.

Pulled by structure from the entries so far (4):
`O=C(NNS(=O)(=O)c1ccccc1)c1ccccc1-n1cccc1` gave RecA intein inh -3.1 and Mtb betalactam -8.
`Cc1cccc(-c2nc(NCCCN(C)C)c3ccccc3n2)c1` gave RecA intein inh 1.8 and Mtb betalactam 4.
`Cc1ccc(S(=O)(=O)N(C)c2cc(S(=O)(=O)N3CCOCC3)c(C)cc2C)cc1` gave RecA intein inh 2.4 and Mtb betalactam -2.
`O=C(C1=C[C@H](c2ccc3c(c2)OCO3)C[C@H](OCc2ccc(CO)cc2)O1)N1CCN(Cc2ccc3c(c2)OCO3)CC1` gave Mtb H37Rv 9%, RecA intein inh 5.3, Mtb betalactam 96 and Arbovirus inh -8.

(cont.)
COc1ccc(C(=O)CSc2nnc(NC(=O)C3CC(=O)N(c4ccccc4)C3)s2)cc1 (centres undefined) was read as Mtb H37Rv 0%, RecA intein inh -0.6, Mtb betalactam 0, Arbovirus inh 0 and YopH inh -27.
For COc1ccccc1OCCCOc1ccc(/C=C2\SC(=O)NC2=O)cc1OC the results were RecA intein inh 6.1 and Mtb betalactam 9.
O=C(Nc1ccccc1)N1CCn2c1nc1ccccc12 was read as Mtb H37Rv 8%, RecA intein inh -0.4, Mtb betalactam 3, Arbovirus inh 4 and YopH inh -28.
CCc1ccc(NC(=S)Nc2cccc3cnccc23)cc1 was read as Mtb H37Rv 73%, RecA intein inh 0.5, Mtb betalactam 95 and Arbovirus inh 22.
For Cc1ccc(SCC(=O)OCC(=O)N(CCC#N)c2ccccc2)cc1C the results were RecA intein inh 6.2 and Mtb betalactam 2.
For COC(=O)c1ccc(NC(=O)CSc2nc3cccnc3n2C)cc1 the results were Mtb H37Rv 5%, RecA intein inh 1.6, Mtb betalactam 39, Arbovirus inh 2 and YopH inh -4.
c1ccc(Nc2ncnc3[nH]ncc23)cc1 was read as Mtb H37Rv -4%, RecA intein inh 0.6 and Mtb betalactam -1.
`O=c1oc2ccccc2cc1N1CCOCC1` gave Mtb H37Rv 4%, RecA intein inh -0.8, Mtb betalactam -1, Arbovirus inh -3 and YopH inh -20.
CCC(C(=O)NCc1ccc(F)cc1)N(Cc1cccs1)C(=O)c1snc(C(N)=O)c1N (centres undefined) was read as RecA intein inh 2.2 and Mtb betalactam -5.
Screening CCC1CCCCN1C(=O)Cn1c(=O)n(CCCC(=O)NCc2ccco2)c(=O)c2sccc21 (centres undefined) returned RecA intein inh 0.8 and Mtb betalactam 4.
CCCn1c(SCC(=O)NCc2ccccc2Cl)n[nH]c1=O was read as Mtb H37Rv 6%, RecA intein inh 4.1, Mtb betalactam -6 and Arbovirus inh 2.
For C/C=C(\C)C(=O)Nc1cccc(C2=NOC3(C2)C[C@@H](C(N)=O)N(C(=O)c2cc([N+](=O)[O-])cc([N+](=O)[O-])c2C)C3)c1 (some centres undefined) the results were Mtb H37Rv 16%, RecA intein inh 1.8 and Mtb betalactam 11.
`COc1cc(/C=N/NC(=S)NCCc2ccccc2)cc(OC)c1OC` gave RecA intein inh 9.7 and Mtb betalactam 14.
Screening O=C(O)/C=C/c1coc2ccc(F)cc2c1=O returned Mtb H37Rv 0%, RecA intein inh -3.6, Mtb betalactam 0, Arbovirus inh -2 and YopH inh -15.
N/C(=N\OC(=O)c1ccc(F)cc1)c1ccc(Br)cc1 was read as Mtb H37Rv 5%, RecA intein inh -1.6, Mtb betalactam -9 and Arbovirus inh -8.
Cc1cc(C)cc(C(=O)NC(CC(N)=O)c2ccc(N3CCN(c4ccccn4)CC3)c([N+](=O)[O-])c2)c1 (centres undefined) was read as RecA intein inh 1.7 and Mtb betalactam -5.
`c1cncc(Nc2nc(-c3cccs3)cs2)c1` gave Mtb H37Rv 7%, RecA intein inh 0.9, Mtb betalactam 24, Arbovirus inh 7 and YopH inh -19.
`Cc1cc(C)nc(NC(=O)c2csnn2)c1` gave Mtb H37Rv 4%, Mtb betalactam -5 and Arbovirus inh -5.
For CC(=O)Nc1cc2c3c(c1)CCC(=O)N3CCC2 the results were RecA intein inh 3.8 and Mtb betalactam -6.
For O=C(/C=C/c1ccc(Cl)c([N+](=O)[O-])c1)Nc1ccc(N2CCCC2)cc1 the results were Mtb H37Rv -1%, RecA intein inh 5.3, Mtb betalactam -1, Arbovirus inh -11 and YopH inh -18.
`O=C(NCCC1=CCCCC1)c1cccc2c1C(=O)N(C1CCCCC1)C2` gave Mtb H37Rv 9%, RecA intein inh -0.3, Mtb betalactam 6 and Arbovirus inh 14.
Screening O=C(COc1ccc2ccc(=O)oc2c1)N1CCN(c2ccc(F)cc2)CC1 returned RecA intein inh 2.7 and Mtb betalactam -5.
`CCc1ccc(C(=O)NNc2ccccc2F)cc1` gave Mtb H37Rv 56%, RecA intein inh 0.9 and Mtb betalactam 90.
Screening CC(=O)NC(=O)NC1OC(=O)C(Cl)=C1Cl (centres undefined) returned Mtb H37Rv -10%, Mtb betalactam 0, Arbovirus inh 3 and YopH inh 1.
Screening COc1ccc(-c2nnc(SCc3cc(C)ccc3C)n2N)cc1 returned Mtb H37Rv 10%, RecA intein inh 6.1, Mtb betalactam 3, Arbovirus inh 4 and YopH inh -10.
For S=c1[nH]nc(-c2ccco2)n1-c1ccc(Cl)cc1 the results were Mtb H37Rv -5%, RecA intein inh -0.3, Mtb betalactam -8 and Arbovirus inh 1.
COc1cc2c(cc1OC)-c1cc(Nc3ccccc3Br)nc(=O)n1CC2 was read as RecA intein inh -1.2 and Mtb betalactam 4.
Cc1cc(C(=O)NCCN2CCN(c3cccc(Cl)c3)CC2)n(-c2ccccc2)n1 was read as Mtb H37Rv 8%, Mtb betalactam 5, Arbovirus inh -31 and YopH inh -30.
For CCN(CC(=O)N1CCC(C(N)=O)CC1)S(=O)(=O)c1ccc(Cl)cc1 the results were RecA intein inh -0.3 and Mtb betalactam -1.
For CCCCc1c(O)nc(SCC(=O)Nc2ccc3c(c2)CCC3)[nH]c1=O the results were Mtb H37Rv inconclusive, RecA intein inh 1.0, Mtb betalactam 2, Arbovirus inh 0 and YopH inh -26.
COc1ccc(OC)c(S(=O)(=O)N(C(C)=O)c2ccc3oc(=O)sc3c2)c1 was read as Mtb H37Rv -9%, RecA intein inh -5.2, Mtb betalactam 2 and Arbovirus inh 9.
Screening COc1cc(OC)nc(NC(=O)CSc2nnc(-c3ccccc3)n2C2CCCCC2)n1 returned Mtb H37Rv -2%, RecA intein inh -0.7, Mtb betalactam -3 and YopH inh -182.
Screening COc1ccc(C(=O)N2CCN(c3ccccn3)CC2)cc1 returned Mtb H37Rv -12%, RecA intein inh 0.3, Mtb betalactam -3, Arbovirus inh -1 and YopH inh -4.
For Cc1cccc(NC(=O)Cn2c(O)c(N=NC(=O)c3ccccc3O)c3ccccc32)c1 the results were RecA intein inh 0.2, Mtb betalactam 1, Arbovirus inh -2 and YopH inh -16.
Screening COc1ccc(CCNC(=O)COC(=O)c2cnc(C)cn2)cc1OC returned Mtb H37Rv -3%, RecA intein inh -1.3, Mtb betalactam 2, Arbovirus inh 5, YopH inh -54 and Arbovirus inh repeat 3.
C=CCNC(=S)NNC(=O)c1cccn(Cc2ccc(Cl)cc2Cl)c1=O was read as Mtb H37Rv 1%, RecA intein inh -1.7, Mtb betalactam 10, Arbovirus inh -10 and YopH inh -33.
For Cc1nc([N+](=O)[O-])c(N2CCN(Cc3ccccc3)CC2)n1Cc1ccccc1 the results were Mtb H37Rv -3%, RecA intein inh 4.1, Mtb betalactam -9, Arbovirus inh 9 and YopH inh -8.
CC(=O)Oc1ccc(/C=N/NC(=O)C2CCCN2S(=O)(=O)c2ccc(Cl)cc2)cc1 (centres undefined) was read as Mtb H37Rv 1%, RecA intein inh 4.0, Mtb betalactam -6, Arbovirus inh 4 and YopH inh 15.
Screening Cc1ccc(N=CC2=C(O)CC(c3ccccc3Cl)CC2=O)cc1 (centres undefined) returned Mtb H37Rv 0%, RecA intein inh 1.4 and Mtb betalactam 27.
For O=C(CCOc1ccccc1)N1CCN(c2ccc(O)cc2)CC1 the results were Mtb H37Rv -11%, RecA intein inh -5.4 and Mtb betalactam -4.
For Cc1ccccc1NC(=O)CN1CCC(n2nnc3ccccc32)CC1 the results were Mtb H37Rv -10%, Mtb betalactam -7, Arbovirus inh 1 and YopH inh -2.
Screening Nc1ccc(Oc2ccc3c(c2)OCO3)cc1 returned Mtb H37Rv 71%, RecA intein inh -0.7, Mtb betalactam -4 and Arbovirus inh -23.
`O=C(CCN1CCN(C(c2ccccc2)c2ccccc2)CC1)N/N=C/c1ccc(O)cc1` gave Mtb H37Rv -4%, RecA intein inh 6.0, Mtb betalactam 7, Arbovirus inh -3 and YopH inh -23.
`CCCSC1=C(C#N)C(c2cccs2)C(C(=O)Nc2ccccc2)=C(C)N1` (centres undefined) gave Mtb H37Rv 7.8µM*, RecA intein inh 19, Mtb betalactam 100, Arbovirus inh 8 and YopH inh -19.
For COC(=O)c1ccc(N2C(=O)C3C4C=CC(CC4)C3C2=O)cc1 (centres undefined) the results were RecA intein inh -0.5 and Mtb betalactam 4.
COc1ccccc1N1CCN(C(=O)c2cccc(N3C(=O)NC4CC3(C)Oc3c(OC)cccc34)c2)CC1 (centres undefined) was read as RecA intein inh 2.2 and Mtb betalactam -3.
Screening COCCCn1c(C(=O)NCCC2=CCCCC2)cc2c(=O)n3cccc(C)c3nc21 returned RecA intein inh -3.1 and Mtb betalactam 10.
For Cc1ccc(C(C)NC(=S)NC2CCCCC2)cc1C (centres undefined) the results were RecA intein inh 2.3 and Mtb betalactam 9.
